Compound activity as filed in PubChem.
D2 ag = activates the human D2 dopamine receptor | 360,000 compounds, 0.084% hits | activation, % (no concentration beside the values) | P14416 | AID 624465 | DiscoveRx PathHunter D2 beta-arrestin, luminescence, 90 min; 100% = 57 uM dopamine signal; in the data active = activation above about 40%; inconclusive = about 15% to 40%; inactive = below about 15%; note: compound concentration not given in the record; the text of the record calls up to 30% inactive
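Agonist mode: compounds alone added to overnight-plated D2 PathHunter cells for 90 min at 37 C, with 57 uM final dopamine (EC100) defining full response. Beta-arrestin recruitment detected by chemiluminescent reagent, read after 1 h at ambient temperature.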
D2 PAM = human D2 receptor positive allosteric modulation; 360,000 compounds, 0.23% hits; AID 624464; DiscoveRx D2 beta-arrestin cells, luminescence, 90 min; 100% = 57 uM dopamine signal; potentiation, % (test concentration not listed); active = potentiation of 50% or more; inconclusive = 30% to 50%; inactive = 30% or less;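 note: compound concentration not given in the record; tested on top of an EC20 dose of dopamine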
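PathHunter beta-arrestin assay in DiscoveRx D2 cells. Compounds were added with an EC20 of dopamine (50 nM final) for 90 min at 37 deg C. Luminescence was read 1 h after detection reagent, with 57 uM dopamine as the EC100 control.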
Six1-Eya2 inh = blocks human Six1 binding to Eya2 | Q15475+O00167 | AlphaScreen GST-Six1/His-Eya2 binding, biochemical; stronger effect = lower value; control for the full effect not named in the record | activity change, % (no concentration beside the values) | 360,000 compounds, 0.56% hits | AID 651725; in the data active = activity change below about -65%; inconclusive = about -30% to -65%; inactive = above about -30%; note: % is set by controls: 0 for no effect and ±100 for the full control effect
Target sequence (O00167 whole entry, looked up): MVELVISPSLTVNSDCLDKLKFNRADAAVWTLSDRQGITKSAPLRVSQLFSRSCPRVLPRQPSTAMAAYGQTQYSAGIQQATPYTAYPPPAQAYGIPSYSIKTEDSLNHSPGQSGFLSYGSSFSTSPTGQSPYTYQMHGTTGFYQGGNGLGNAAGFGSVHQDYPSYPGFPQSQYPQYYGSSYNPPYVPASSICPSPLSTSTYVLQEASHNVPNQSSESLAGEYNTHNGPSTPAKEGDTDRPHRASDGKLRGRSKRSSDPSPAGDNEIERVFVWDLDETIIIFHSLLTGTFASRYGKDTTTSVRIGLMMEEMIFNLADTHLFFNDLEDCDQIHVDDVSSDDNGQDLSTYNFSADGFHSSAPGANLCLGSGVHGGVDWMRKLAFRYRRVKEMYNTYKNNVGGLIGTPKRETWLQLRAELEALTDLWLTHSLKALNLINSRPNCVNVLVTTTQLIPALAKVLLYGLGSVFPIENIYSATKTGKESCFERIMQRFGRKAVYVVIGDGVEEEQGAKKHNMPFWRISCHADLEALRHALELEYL
Target sequence (Q15475 whole entry, looked up): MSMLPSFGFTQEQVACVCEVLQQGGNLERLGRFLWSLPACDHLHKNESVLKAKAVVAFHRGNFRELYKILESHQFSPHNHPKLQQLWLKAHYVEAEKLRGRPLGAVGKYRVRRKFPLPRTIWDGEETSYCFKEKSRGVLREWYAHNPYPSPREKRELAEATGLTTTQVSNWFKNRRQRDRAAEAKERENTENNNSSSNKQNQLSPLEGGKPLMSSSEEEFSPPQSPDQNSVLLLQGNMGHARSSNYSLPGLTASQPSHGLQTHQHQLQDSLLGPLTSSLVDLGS
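AlphaScreen with GST-Six1 and His-Eya2 (5X mix: 250 nM and 500 nM), glutathione donor and nickel acceptor beads; buffer 50 mM Tris pH 8.0, 300 mM NaCl, 1 mM TCEP; 1 h at 37 C in the dark.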
gsp agonist = agonists of gsp mutant (McCune-Albright syndrome). gsp mutant cells, cAMP HTRF, 30 min; control for the full effect not named in the record. Potency, µM (highest dose often 76.9 µM), inactives show top-dose activation (cAMP increase), usual class: activators. 340,000 compounds, 0.13% hits. AID 624287; active = well fitted activation curve with a large enough effect; inconclusive = small, poorly fitted or top-dose-only effect, or another doubt; inactive = no such curve, though single readings can be large or run the other way; cell line not stated here;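 note: phosphodiesterase inhibitor Ro 20-1724 added with compounds to block cAMP breakdown; potency is the fitted concentration of half-maximal effect; nearly all actives have a fitted effect of over 60% in size; about a fifth of the inactives were tested at one dose only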
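Cells stably selected in G418 were plated at 2000/well, grown 16-24 hr, then given compounds in DMSO with the PDE inhibitor […] (300 uM solution added) for 30 min at 37C; cAMP was read by HTRF.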
gsp antagonist = antagonizes gsp, the McCune-Albright syndrome mutation | gsp-mutant cells, cAMP HTRF, 30 min; control for the full effect not named in the record | Potency, µM (series often up to 76.9 µM), without a hit: at the top dose activity change, negative = inhibition, most hits filed as inhibitors | 340,000 compounds, 0.4% hits | AID 624288; active = falling curve of any shape with a large fitted effect; inconclusive = falling curve, mostly with a smaller effect; inactive = flat or rising curve; cell line not stated here;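 note: intracellular cAMP measured with PDE inhibitor Ro 20-1724 present during compound exposure; potency is the fitted concentration of half-maximal effect; % is set by controls: 0 for no effect and ±100 for the full control effect; nearly all actives have a fitted effect of over 65% in size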
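G418-selected cells were plated in DMEM/10% FBS for 16-24 h at 37C, then treated with compounds plus the PDE inhibitor […] (300 uM solution added) for 30 min at 37C. Intracellular cAMP was measured by HTRF after 30 min lysis at room temperature.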
CtBP-E1A blk = blocks the CtBP interaction with E1A; AlphaScreen GST-E1A/His-CtBP binding, 1536-well; stronger effect = lower value; control for the full effect not named in the record; activity change, % (no concentration beside the values); 340,000 compounds, 0.49% hits; AID 651724; in the data active means activity change below about -65%; inconclusive means about -30% to -65%; inactive means above about -30%; note: % is set by controls: 0 for no effect and ±100 for the full control effect
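In 5 uL wells, 23 nL compound meets equimolar GST-E1A and His-CtBP (5X stock 125 nM each) for 2 h, 37 °C. Beads (5X, 50 ug/mL) then 1 h, 37 °C, dark.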
* marks the source's active call; other numbers are inactive results; ? = inconclusive; / = no result given; [ ] = dose if it differs, or a comment.

smiles,D2 ag,D2 PAM,Six1-Eya2 inh,gsp agonist,CtBP-E1A blk,gsp antagonist
O=C(NNC1CC(=O)N(c2ccccc2)C1=O)c1ccccc1Cl (stereo not given),-5.5,-6,-1,?,5,10%
COc1cccc(-c2cccc(NC(=O)C3CCN(C4CCOCC4)CC3)c2)c1,-2.9,-6,-10,?,/,10%
CN(CCc1cn[nH]c1)C(=O)CC1C(=O)NCCN1Cc1cccc(Oc2ccccc2)c1 (stereo not given),-1.6,1,-1,-46%[inhibitor],-25,-2%
COc1ccc(C(=O)Nc2cccc([N+](=O)[O-])c2)cc1Br,-0.5,20,1,?,-2,-2%
C#CCOc1ccccc1CNc1ccccc1,3.8,-7,2,-6%,/,-5%
COC(=O)C1CSC(C(=O)OC)N1C(=O)CN1CCN(c2ccc(OC)cc2)CC1 (stereo not given),-4.5,-8,-5,18%,/,0%
CCN(CC(=O)Nc1ccc(OC(F)F)cc1)C1CCCCC1,-4.9,-22,-21,-11%,/,16%
COc1ccc(C=O)cc1CSc1ccccn1,4.6,-5,1,10%[15.4 µM],12,-9%
O=C1CCC(C(=O)N2CCCC(C(=O)c3ccc4ccccc4c3)C2)=NN1 (stereo not given),-0.3,-32,21,8%,2,-28%
Cc1cccc(S(=O)(=O)NC(=O)C2(C)CCN2C(=O)c2ccccc2)c1 (stereo not given),-4.1,-3,10,/,5,/
O=C(C(c1ccccc1)c1ccccc1)N1CCN(CC(O)COc2ccccc2)CC1 (stereo not given),-3.7,-31,-2,-1%,-2,-20%
Cc1cc(C(=O)NCc2cc(C(=O)O)co2)co1,-2.7,-11,-5,5%,/,3%
CCOc1ccc(S(=O)(=O)NC2=NCCCCC2)cc1,-1.9,1,25,-1%,/,13%
CC1CCCC(C)N1C(=O)COC(=O)/C=C/c1ccco1 (stereo not given),-5.0,-20,3,2%[15.4 µM],5,6%
CC(=O)NC(Cc1ccccc1)c1ccc2c(c1)OCCCO2 (stereo not given),-2.8,-11,9,15%,6,-2%

The list goes on (two carried over from the part before).
smiles,D2 ag,D2 PAM,Six1-Eya2 inh,gsp agonist,CtBP-E1A blk,gsp antagonist
CC1CCCC(C)N1C(=O)COC(=O)/C=C/c1ccco1 (stereo not given),-5.0,-20,3,2%[15.4 µM],5,6%
CC(=O)NC(Cc1ccccc1)c1ccc2c(c1)OCCCO2 (stereo not given),-2.8,-11,9,15%,6,-2%
CCCCCCN[C@H]1CCC2C3CC=C4C[C@@H](O)CC[C@]4(C)C3CC[C@@]21C (stereo not given in full),-4.0,-13,1,1%,0,10%
CCNC(=O)NC(=O)C(C)Oc1ccc(Br)cc1Br (stereo not given),9.5,-2,5,21%[15.4 µM],/,-2%
CC1=C(C(=O)Nc2ccccc2)C(c2ccco2)NC(=O)N1 (stereo not given),1.2,-12,-2,-20%,24,3%
CCOc1cccc(C(=O)Nc2ccc(S(=O)(=O)Nc3cc(C)on3)cc2)c1,-4.9,-5,-10,-5%[15.4 µM],-16,-11%
Cc1onc(-c2ccccc2Cl)c1C(=O)N1CCC(C(N)=O)CC1,3.7,-2,2,28%,-10,6%
Cc1cc(NC(=O)Cn2nnc3sc4c(c3c2=O)CCC(C(C)(C)C)C4)no1 (stereo not given),-3.6,0,-12,-24%,-4,-15%
CN(C)c1ccc(NC(=O)Cc2ccccc2)c2ccccc12,-1.1,-4,2,?,4,3%
CC(C)(C)SC(=O)CC1NS(=O)(=O)OC2CCCCC12 (stereo not given),-1.3,-10,-4,18%,7,9%
COc1cccc(OC)c1C(=O)Nc1cccc(S(=O)(=O)Nc2ccccc2Cl)c1,-1.1,-1,-1,26%,-14,-19%
Cn1cc([N+](=O)[O-])c(C(=O)NCc2cc3ccccc3[nH]2)n1,-0.3,7,-3,5%,2,-3%
O=S(=O)(c1ccccc1)N(CC1CO1)c1cc(Cl)ccc1Cl (stereo not given),2.1,-1,3,3%[15.4 µM],-7,-11%
Cc1cccc(-c2nc(C#N)c(NC3CCCCC3)o2)c1,-0.6,-6,-12,3%,2,-11%
O=C(NCC1CCCO1)c1ccc(CNS(=O)(=O)c2cccc(Cl)c2)cc1 (stereo not given),-1.4,-5,5,-21%[15.4 µM],-1,7%
COC(=O)/C=C1\SC(=NC(=O)c2ccc(-c3ccccc3)cc2)NC1=O,-5.4,-8,1,-39%[inhibitor],-3,-5%
Cn1c(=O)c2c(nc(NC3CCCC3)n2C)n(C)c1=O,-0.3,-1,8,?,-1,3%
CCCCCc1ccc(-c2ccc(=O)[nH]n2)cc1,0.5,22,-4,2%,-1,4%
CCOc1ccc(CNC(=O)Cn2nc(C)c3c(C)n(-c4ccc(C)cc4)nc3c2=O)cc1,0.7,-7,-7,?,1,-10%
N#Cc1c(NC(=O)CSc2nc3c(c(C(F)(F)F)n2)CCc2ccccc2-3)sc2c1CCCC2,-1.7,-17,1,-37%[inhibitor],8,-8%
COc1cc2[nH]c(=S)n(CC3CCCO3)c(=O)c2cc1OC (stereo not given),0.8,-5,-4,1%,-1,-14%
CC(NC(=O)Cn1c(NCCO)nc2ccccc21)c1ccccc1 (stereo not given),-1.8,-5,0,-2%,10,4%
Cc1cccc(C)c1OCC(O)Cn1c2ccccc2c2ccccc21 (stereo not given),-0.6,6,11,3%,11,-14%
CN1CCc2c(sc3c2c(=O)n(-c2ccc(Cl)cc2)c2nncn32)C1,0.6,-15,-8,-12%,-3,3%
Cc1ccc([C@H]2C(C(=O)O)=CC[C@@H](c3ccc(Cl)cc3)N2S(=O)(=O)c2ccccc2C)cc1,-1.1,/,-2,/,2,-14%
CCCn1c(O)c(N=Nc2ccc3ccccc3n2)c2ccccc21,-4.5,-19,2,8%,-2,1%
CC(=O)c1ccc(N2CCC(c3cc(-c4ccc(Cl)cc4Cl)n[nH]3)CC2)c([N+](=O)[O-])c1,-0.5,-1,?,-4%,?,?
O=C(NCc1ccco1)c1n[nH]c(=O)c2ccccc12,-1.5,-6,-1,?,1,-2%
O=C(CCl)Nc1ncc(S(=O)(=O)c2ccc([N+](=O)[O-])cc2)s1,?,6,2,18%,3,-6%
O=C(NC1=NCCS1)c1ccc(-c2ccc(Cl)cc2)o1,-6.5,-13,-3,-2%,-6,-19%
O=S(=O)(NCc1ccccc1)c1ccc(Br)s1,0.6,-3,10,23%,-1,6%
Cc1ccc2nc(SCC(=O)c3c(N)n(C)c(=O)n(C)c3=O)[nH]c2c1,1.7,-4,-13,?,-16,-2%

Arranged by count of non-hydrogen atoms (lowest first): part of the list above
smiles,D2 ag,D2 PAM,Six1-Eya2 inh,gsp agonist,CtBP-E1A blk,gsp antagonist
CCCCCc1ccc(-c2ccc(=O)[nH]n2)cc1,0.5,22,-4,2%,-1,4%
O=C(NCc1ccco1)c1n[nH]c(=O)c2ccccc12,-1.5,-6,-1,?,1,-2%
O=C(CCl)Nc1ncc(S(=O)(=O)c2ccc([N+](=O)[O-])cc2)s1,?,6,2,18%,3,-6%
CCCn1c(O)c(N=Nc2ccc3ccccc3n2)c2ccccc21,-4.5,-19,2,8%,-2,1%
CC(=O)c1ccc(N2CCC(c3cc(-c4ccc(Cl)cc4Cl)n[nH]3)CC2)c([N+](=O)[O-])c1,-0.5,-1,?,-4%,?,?
CCOc1ccc(CNC(=O)Cn2nc(C)c3c(C)n(-c4ccc(C)cc4)nc3c2=O)cc1,0.7,-7,-7,?,1,-10%

New compounds follow.
smiles,D2 ag,D2 PAM,Six1-Eya2 inh,gsp agonist,CtBP-E1A blk,gsp antagonist
O=C(O)C1C=CC(C(=O)O)c2ccccc21 (stereo not given),-5.0,-13,0,-52%[inhibitor],-13,/
O=C(NCC(F)(F)F)Nc1nnc(C(F)(F)F)s1,2.0,11,7,19%,-1,3%
COc1ccccc1OCCOC(=O)Nc1ccccc1,-0.4,-10,15,-4%,2,4%
Cn1nccc1C(=O)N1CCN(c2cccc(C(F)(F)F)c2)CC1,-2.8,-10,-2,-13%,-2,0%
Oc1ccc(N=Nc2ccccc2-c2nn[nH]n2)c(O)c1,-14,-13,-86*,-21%,/,0%
Cc1ccc(C(=O)NC(C)CCc2ccccc2)cc1S(=O)(=O)N1CCOCC1 (stereo not given),-1.6,-13,4,-4%[15.4 µM],4,1%
CC1CN(c2ccc([N+](=O)[O-])c(NCCOc3ccccc3)c2)CC(C)N1 (stereo not given),-3.9,-15,-18,-14%,-23,3%
O=C(NCCS(=O)(=O)N1CCCC1)c1ccccc1,3.2,8,4,-10%[15.4 µM],-14,6%
COC(=O)C(CC(C)C)NC(=O)/C=C/c1ccccc1Cl (stereo not given),1.2,-3,8,12%,3,-8%
O=C(CSc1nnc(-c2cccnc2)s1)Nc1cccc(C(=O)O)c1,-0.3,11,-1,?,7,-5%
CN(CCc1ccccn1)C(=O)c1cccnc1Oc1ccccc1,-4.2,-16,9,16%,/,3%
C=CCN(C(=O)c1csnn1)C(C(=O)NC1CCCCC1)c1ccc(Cl)cc1 (stereo not given),-2.4,-9,7,13%[15.4 µM],11,/
COc1cc(/C=C2/C(=O)NN(c3ccc(Cl)cc3)C2=O)cc(OC)c1O,-6.4,-5,-2,-38%,/,-16%
C/C(=C\c1ccccc1)CN1CCN(c2cccc(Cl)c2)CC1,2.7,-12,10,-5%,11,10%
CCOc1ccccc1NC(=O)CSc1nnc2c(CC)c(C)nc(N)n12,-1.4,-5,3,?,-1,6%
CCCc1nc(SCC(N)=O)[nH]c(=O)c1CC,2.7,7,3,5%,6,10%
O=C(NCc1ccccc1)/C(=C\c1ccc(F)cc1)NC(=O)c1ccco1,-2.0,-9,0,-48%[inhibitor],3,/
Cc1ccccc1NC(=O)c1ccccc1N(C)S(=O)(=O)c1ccccc1,-6.4,-1,3,-3%[15.4 µM],6,-1%
O=[N+]([O-])c1ccccc1S(=O)(=O)NCCSCc1ccco1,-1.7,10,-3,21%,3,8%
CC1CCCC(C(=O)O)N1C(=O)CCS (stereo not given),-2.8,0,1,16%,-5,-1%
CCNS(=O)(=O)c1ccc(NC(=S)NCC2CCCO2)cc1 (stereo not given),-1.0,-3,9,7%[15.4 µM],4,1%

Laid out differently: entries from further up
Cc1ccccc1NC(=O)c1ccccc1N(C)S(=O)(=O)c1ccccc1
  D2 ag: -6.4; D2 PAM: -1; Six1-Eya2 inh: 3; gsp agonist: -3%[15.4 µM]; CtBP-E1A blk: 6; gsp antagonist: -1%

O=[N+]([O-])c1ccccc1S(=O)(=O)NCCSCc1ccco1
  D2 ag: -1.7; D2 PAM: 10; Six1-Eya2 inh: -3; gsp agonist: 21%; CtBP-E1A blk: 3; gsp antagonist: 8%

The order is random (roughly 1.4% active in at least one column).
